PV pol inh – poliovirus RdRp elongation inhibitors, primary screen, biochemical, fluorescence polarization, total intensity; % elongation, % (compound at 16.7 µg/mL); 150,000 tested, 0.66% active; poliovirus polymerase elongation; hits give low values; in the data active = % elongation below about 90%; note: some results filed as inactive read as strong as hits
Target sequence (P03300 1749-2209 limits assumed): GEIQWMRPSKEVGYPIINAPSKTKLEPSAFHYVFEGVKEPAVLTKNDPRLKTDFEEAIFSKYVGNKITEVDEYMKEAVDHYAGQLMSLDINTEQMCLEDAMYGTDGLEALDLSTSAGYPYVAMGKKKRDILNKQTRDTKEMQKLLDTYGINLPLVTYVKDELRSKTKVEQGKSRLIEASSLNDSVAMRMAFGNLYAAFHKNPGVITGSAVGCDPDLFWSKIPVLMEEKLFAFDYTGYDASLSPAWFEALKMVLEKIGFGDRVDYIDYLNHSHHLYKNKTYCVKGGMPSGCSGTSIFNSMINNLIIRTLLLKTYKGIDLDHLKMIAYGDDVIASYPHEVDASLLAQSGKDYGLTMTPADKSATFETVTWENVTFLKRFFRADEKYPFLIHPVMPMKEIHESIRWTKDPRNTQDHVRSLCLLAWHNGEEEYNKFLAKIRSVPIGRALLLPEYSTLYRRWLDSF
Mtb MenB inh – M. tuberculosis MenB inhibitors, primary screen, biochemical, absorbance; 1,4-dihydroxy-2-naphthoyl-CoA synthase (Mycobacterium tuberculosis (strain ATCC 25618 / …; MenB enzyme assay, absorbance read-out; some hits fall short of the stated cut; inhibition, %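 (about 12 µg/mL by stock and volumes)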; 100,000 tested, 0.43% active;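 active = mean of two replicates above 30%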;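 note: 0% = no compound and 100% = wells with inactive enzyme; the first replicate is given; strong numbers were not always called active; inactives centre near -10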
Mtb MbtI inh – MbtI salicylate synthase inhibitors, primary screen, biochemical, fluorescence intensity; AID 493033, 2011; 100,000 tested, 0.89% active; P9WFX0; inhibition, %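 (about 17 µg/mL by stock and volumes)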; purified MbtI enzyme, fluorescence intensity read-out;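 active = above 50% in both replicates, above 80% if mildly self-fluorescent; inactive = the rest, strongly fluorescent compounds included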;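 note: 0% = mean of negative and 100% = mean of positive controls; one replicate is shown; some compounds called inactive have numbers as strong as hits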
Target sequence (P9WFX0 whole entry, looked up): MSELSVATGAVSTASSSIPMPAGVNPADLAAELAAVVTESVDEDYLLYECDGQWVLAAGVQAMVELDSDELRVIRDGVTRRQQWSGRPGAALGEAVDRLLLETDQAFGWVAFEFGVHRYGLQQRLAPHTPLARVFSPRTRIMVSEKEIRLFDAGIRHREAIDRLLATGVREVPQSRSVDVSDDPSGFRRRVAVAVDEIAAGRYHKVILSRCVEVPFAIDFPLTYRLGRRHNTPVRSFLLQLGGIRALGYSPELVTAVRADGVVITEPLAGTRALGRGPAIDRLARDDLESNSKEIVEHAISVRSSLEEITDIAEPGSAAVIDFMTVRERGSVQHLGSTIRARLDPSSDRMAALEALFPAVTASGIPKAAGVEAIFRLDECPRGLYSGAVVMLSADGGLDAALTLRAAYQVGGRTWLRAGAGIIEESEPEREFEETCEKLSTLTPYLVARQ
PV pol inh intensity – second read-out of PV pol inh, no call of its own (marks repeat the call); % elongation; measured here: total intensity read-out; formula for this scale not given here;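 total fluorescence in place of polarization; lower means less elongation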
Starred values were filed as active, the others as inactive; & = joins results of further samples.

CCN1CCSc2ccc(C(=O)N3CCC(C)CC3)cc21 was read as PV pol inh 102, Mtb MenB inh -24, Mtb MbtI inh 83 and PV pol inh intensity 99.
For C/C(=N/OC(=O)c1ccccc1)c1oc(C)nc1C the results were PV pol inh 101, Mtb MenB inh 2, Mtb MbtI inh 14 and PV pol inh intensity 104.
O=C(CSc1nnnn1-c1ccc2c(c1)OCCO2)NC1CCCC1 was read as PV pol inh 101, Mtb MenB inh 21, Mtb MbtI inh -16 and PV pol inh intensity 104.
Screening Cc1ccc(O)c(CNc2cccc3cccnc23)c1 returned PV pol inh 98, Mtb MenB inh -12, Mtb MbtI inh -4 and PV pol inh intensity 100.
`Cc1ccc2nc(SC(C)C(=O)N3CC(C)OC(C)C3)[nH]c2c1` (stereo unspecified) gave PV pol inh 106, Mtb MenB inh 16, Mtb MbtI inh 14 and PV pol inh intensity 97.
For COC(CN(C)C(=O)c1cc2c(s1)-c1ccccc1OC2)OC the results were PV pol inh 102, Mtb MenB inh 1, Mtb MbtI inh 103 and PV pol inh intensity 99.
Screening CCCN(CCC)S(=O)(=O)c1ccc(C(=O)O)cc1 returned PV pol inh 103&99, Mtb MenB inh -5&-20, Mtb MbtI inh -4&-22 and PV pol inh intensity 100&101.
Screening COc1ccc(-n2cc(C(=O)NC(C)Cn3c(=O)oc4ccccc43)nn2)cc1 (stereo unspecified) returned PV pol inh 102, Mtb MenB inh -15, Mtb MbtI inh -8 and PV pol inh intensity 102.
`O=C(Cn1cc(S(=O)(=O)Cc2ccccc2)c2ccccc21)Nc1ccon1` gave PV pol inh 105, Mtb MenB inh -25, Mtb MbtI inh -4 and PV pol inh intensity 106.
For CCn1c(CC(=O)Nc2ccccc2)nnc1SC(C)C(=O)Nc1ccc2c(c1)OCO2 (stereo unspecified) the results were PV pol inh 102, Mtb MenB inh 18, Mtb MbtI inh 4 and PV pol inh intensity 99.
`CCOC(Cn1c(SCC(=O)Nc2cc(C)on2)nc2ccccc2c1=O)OCC` gave PV pol inh 100, Mtb MenB inh -2, Mtb MbtI inh -15 and PV pol inh intensity 101.
For CC1CCCCC1NC(=O)CSc1ccccc1 (stereo unspecified) the results were PV pol inh 99, Mtb MenB inh -15, Mtb MbtI inh 11 and PV pol inh intensity 102.
O=C(NCCc1ccccn1)c1cc(Cl)ccc1Cl was read as PV pol inh 102, Mtb MenB inh -2, Mtb MbtI inh 16 and PV pol inh intensity 105.
For Cc1ccc(Nc2nc(C)cc(C)n2)c(C(=O)O)c1 the results were PV pol inh 98&99, Mtb MenB inh 3, Mtb MbtI inh 84 and PV pol inh intensity 101&100.
COc1cc(C2N(c3cc(C)on3)C(=O)C3CCCN32)cc(OC)c1OC (stereo unspecified) was read as PV pol inh 101, Mtb MenB inh -20, Mtb MbtI inh -16 and PV pol inh intensity 102.
CC(C)n1nnc2c(=O)oc3ccccc3c21 was read as PV pol inh 103, Mtb MenB inh -14, Mtb MbtI inh -11 and PV pol inh intensity 105.
CSc1nc(NC(=O)NS(=O)(=O)c2ccccc2C(F)(F)F)nc(-c2ccccn2)n1 was read as PV pol inh 114, Mtb MenB inh -13, Mtb MbtI inh -4 and PV pol inh intensity 123.
Screening COc1ccc(C2SCC(=O)N2CCCN(C)C)cc1OC (stereo unspecified) returned PV pol inh 101, Mtb MenB inh 5, Mtb MbtI inh 6 and PV pol inh intensity 104.
For CCCC(=O)NCc1cn2cccc(C)c2n1 the results were PV pol inh 102, Mtb MenB inh -26, Mtb MbtI inh 114 and PV pol inh intensity 99.
For CC(C)CC(NS(C)(=O)=O)C(=O)O (stereo unspecified) the results were PV pol inh 97, Mtb MenB inh 7, Mtb MbtI inh -30 and PV pol inh intensity 95.
CN(C)S(=O)(=O)c1ccc(Cl)c(C(=O)OCC(N)=O)c1 was read as PV pol inh 107, Mtb MenB inh 10, Mtb MbtI inh 3 and PV pol inh intensity 105.
O=C(c1cccc(S(=O)(=O)NC2CCCCCC2)c1)N1CCCc2ccccc21 was read as PV pol inh 102, Mtb MenB inh -18, Mtb MbtI inh -7 and PV pol inh intensity 102.
`CCC(Sc1nc2ncccc2o1)C(=O)Nc1ccc(OC)c(Cl)c1` (stereo unspecified) gave PV pol inh 102, Mtb MenB inh 6, Mtb MbtI inh -9 and PV pol inh intensity 104.
Screening COc1cc(C2C(C#N)=C(SCC(N)=O)NC3=C2C(=O)CCC3)ccc1O (stereo unspecified) returned PV pol inh 103, Mtb MenB inh -32, Mtb MbtI inh 5 and PV pol inh intensity 101.
Screening CN(C)/C=C/C=C1C(=O)CCCC1=O returned PV pol inh 96, Mtb MenB inh inactive, Mtb MbtI inh 10 and PV pol inh intensity 92.
`O=C(NCCCn1ccnc1)c1cc(=O)c2ccccc2o1` gave PV pol inh 102, Mtb MbtI inh -4 and PV pol inh intensity 109.
COC(=O)N(C)c1ccc(C(O)(C(F)(F)F)C(F)(F)F)cc1 was read as PV pol inh 101, Mtb MenB inh 7, Mtb MbtI inh 4 and PV pol inh intensity 103.
Screening CC(C)n1c(C(F)(F)F)nc2cc(C(=O)Nc3ccc(Cl)cc3)ccc21 returned PV pol inh 101, Mtb MenB inh 2, Mtb MbtI inh 52 and PV pol inh intensity 103.
Cc1ccc(NC(=O)C2CCC(C)(C(=O)NN)C2(C)C)cc1 (stereo unspecified) was read as PV pol inh 100, Mtb MenB inh 12, Mtb MbtI inh 5 and PV pol inh intensity 102.
`CCOC(=O)CC1=C(C(=O)OCC)C2(C(=O)N(C)c3ccccc32)C(C#N)=C(N)O1` (stereo unspecified) gave PV pol inh 103, Mtb MenB inh -65, Mtb MbtI inh 0 and PV pol inh intensity 101.
Screening O=C(O)CCC/C=C\CC1C2CCC(O2)C1CNNC(=O)Nc1ccccc1 (stereo unspecified) returned PV pol inh 101, Mtb MenB inh 0 and PV pol inh intensity 104.
For C/C(=N\O)c1c(O)c2ccccc2n(C)c1=O the results were PV pol inh 107, Mtb MenB inh -3, Mtb MbtI inh 0 and PV pol inh intensity 108.
For O=C(O)c1cc(N2C(=O)C3CC=CCC3C2=O)ccc1NCc1cccnc1 (stereo unspecified) the results were PV pol inh 99, Mtb MenB inh -2, Mtb MbtI inh -150 and PV pol inh intensity 104.
Screening CN1CCC(NC(=O)c2cccc(Oc3ccccc3)c2)CC1 returned PV pol inh 103, Mtb MenB inh 7, Mtb MbtI inh -3 and PV pol inh intensity 104.
For CCCn1c(C(O)c2cc(OC)c(OC)c(OC)c2)nc2ccccc21 (stereo unspecified) the results were PV pol inh 101, Mtb MenB inh -3, Mtb MbtI inh -19 and PV pol inh intensity 104.
Cc1ccc(C)c(C(=O)CCC(=O)Nc2ccc(N3CCN(C)CC3)cc2C)c1 was read as PV pol inh 109, Mtb MenB inh -7, Mtb MbtI inh 9 and PV pol inh intensity 114.
For CCOC(=O)c1sc2nc(CN(C)Cc3nc4ccccc4c(=O)[nH]3)[nH]c(=O)c2c1C the results were PV pol inh 106, Mtb MenB inh 1, Mtb MbtI inh 16 and PV pol inh intensity 105.
For C=CCn1ccn(-c2cccc3ccccc23)c(=O)c1=O the results were PV pol inh 104, Mtb MenB inh -26, Mtb MbtI inh -4 and PV pol inh intensity 95.
For O=C(NCCCN1CCCC1)c1cnn(-c2ccccc2)c1-n1cccc1 the results were PV pol inh 101, Mtb MenB inh 3, Mtb MbtI inh -5 and PV pol inh intensity 100.
For CCOC(=O)c1cc(NC(=O)CSCC(=O)O)ccc1N1CCCCC1 the results were PV pol inh 99, Mtb MenB inh -6, Mtb MbtI inh -3 and PV pol inh intensity 102.
`CC(C)(C)S(=O)(=O)/C(C#N)=C/c1sccc1C1OCCO1` gave PV pol inh 106, Mtb MenB inh 5, Mtb MbtI inh 1 and PV pol inh intensity 105.
CC1=C(C)C(=O)c2ccccc2C1=O was read as PV pol inh 102, Mtb MenB inh -8, Mtb MbtI inh 9 and PV pol inh intensity 99.
Screening CC(C)c1ccc(S(=O)(=O)N2CCC(C(=O)Nc3nnc(-c4ccccc4)o3)CC2)cc1 returned PV pol inh 106, Mtb MenB inh -14, Mtb MbtI inh -22 and PV pol inh intensity 106.
O=C(Nc1cccnc1)c1ccc(COc2ccccc2Cl)o1 was read as PV pol inh 101, Mtb MenB inh 9, Mtb MbtI inh 4 and PV pol inh intensity 102.
For NS(=O)(=O)c1cc(C(=O)Nc2ccccc2N2CCOCC2)ccc1Cl the results were PV pol inh 104, Mtb MenB inh -3, Mtb MbtI inh -11 and PV pol inh intensity 110.
Screening O=C(/C=C(\O)c1ccccc1)C(F)(F)C(F)F returned PV pol inh 98, Mtb MenB inh -21, Mtb MbtI inh 17 and PV pol inh intensity 102.
`O=S(=O)(Nc1cc(F)ccc1F)c1ccc(-n2cccn2)cc1` gave PV pol inh 102, Mtb MenB inh -24, Mtb MbtI inh -7 and PV pol inh intensity 101.
CCn1c(=N)c(C#N)cc2c(=O)n3ccccc3nc21 was read as PV pol inh 108, Mtb MenB inh -12 and PV pol inh intensity 112.
For Cc1c(Cl)cccc1N1C(=O)CC(N2CCCc3ccccc32)C1=O (stereo unspecified) the results were PV pol inh 100, Mtb MenB inh 3, Mtb MbtI inh 45 and PV pol inh intensity 99.
For CCC(Sc1nc2cc(OC)c(OC)cc2c2nc(C)nn12)C(=O)NCc1ccc(C)cc1 (stereo unspecified) the results were PV pol inh 102, Mtb MenB inh -8, Mtb MbtI inh -6 and PV pol inh intensity 107.

Of the compounds above, these contain an NH in an aromatic ring:
`Cc1ccc2nc(SC(C)C(=O)N3CC(C)OC(C)C3)[nH]c2c1` (stereo unspecified) gave PV pol inh 106, Mtb MenB inh 16, Mtb MbtI inh 14 and PV pol inh intensity 97.
For CCOC(=O)c1sc2nc(CN(C)Cc3nc4ccccc4c(=O)[nH]3)[nH]c(=O)c2c1C the results were PV pol inh 106, Mtb MenB inh 1, Mtb MbtI inh 16 and PV pol inh intensity 105.

Next section:
C=C1C(=O)OCC(C)(C)N1C(=O)OCc1ccccc1 was read as PV pol inh 101, Mtb MenB inh -30, Mtb MbtI inh 36 and PV pol inh intensity 103.
Screening O=C(Oc1ccc(Cl)cc1)c1sc2sccc2c1Cl returned PV pol inh 103, Mtb MenB inh -3, Mtb MbtI inh 2 and PV pol inh intensity 106.
`O=S(=O)(c1ccc(-c2cc(C(F)(F)F)ccn2)s1)N1CCCC1` gave PV pol inh 106, Mtb MenB inh -3, Mtb MbtI inh -9 and PV pol inh intensity 117.
For COC(=O)Cn1c(=O)cc(N)n(Cc2ccccc2)c1=O the results were PV pol inh 101, Mtb MenB inh -4, Mtb MbtI inh -7 and PV pol inh intensity 105.
COc1ccc(NC(=O)NCC(C)CSc2ccc(Cl)cc2)c(OC)c1 (stereo unspecified) was read as PV pol inh 100, Mtb MenB inh -31, Mtb MbtI inh 0 and PV pol inh intensity 96.
`CCOC(=O)c1cc2ccccc2nc1C` gave PV pol inh 99, Mtb MenB inh -11 and PV pol inh intensity 96.
Cc1cc(O)ccc1-n1c(=O)c2cc3c(=O)n(-c4ccc(O)cc4C)c(=O)c3cc2c1=O was read as PV pol inh 101, Mtb MenB inh -6, Mtb MbtI inh -4 and PV pol inh intensity 96.
`O=C(NCc1ccccc1)NCc1noc2ccccc12` gave PV pol inh 103, Mtb MenB inh 6, Mtb MbtI inh -1 and PV pol inh intensity 98.
Screening O=C(O)C1C2C=CC(C2)C1C(=O)NCC1CCCO1 (stereo unspecified) returned PV pol inh 101, Mtb MenB inh 8, Mtb MbtI inh -7 and PV pol inh intensity 102.
Screening CSc1c(CC(=O)Nc2ccccc2)n(C)c2ccccc12 returned PV pol inh 98, Mtb MenB inh -10 and PV pol inh intensity 95.

Among those listed so far, these have a CF3 group.
CSc1nc(NC(=O)NS(=O)(=O)c2ccccc2C(F)(F)F)nc(-c2ccccn2)n1 was read as PV pol inh 114, Mtb MenB inh -13, Mtb MbtI inh -4 and PV pol inh intensity 123.
COC(=O)N(C)c1ccc(C(O)(C(F)(F)F)C(F)(F)F)cc1 was read as PV pol inh 101, Mtb MenB inh 7, Mtb MbtI inh 4 and PV pol inh intensity 103.
Screening CC(C)n1c(C(F)(F)F)nc2cc(C(=O)Nc3ccc(Cl)cc3)ccc21 returned PV pol inh 101, Mtb MenB inh 2, Mtb MbtI inh 52 and PV pol inh intensity 103.
`O=S(=O)(c1ccc(-c2cc(C(F)(F)F)ccn2)s1)N1CCCC1` gave PV pol inh 106, Mtb MenB inh -3, Mtb MbtI inh -9 and PV pol inh intensity 117.

More entries:
For CC1(C)CC(NC(=S)NCc2ccco2)CC(C)(C)N1 the results were PV pol inh 98, Mtb MenB inh 7, Mtb MbtI inh -2 and PV pol inh intensity 98.
Screening COc1cc(NC(=O)CCNS(=O)(=O)c2cc(Br)cnc2N)cc(OC)c1 returned PV pol inh 103, Mtb MenB inh -25, Mtb MbtI inh -18 and PV pol inh intensity 102.
For CCOc1cc(/C=c2\sc3nc(=O)c(C)nn3c2=O)ccc1OC(C)=O the results were PV pol inh 103, Mtb MenB inh 6, Mtb MbtI inh 0 and PV pol inh intensity 102.
`CN1CCN(C(=O)NCC23CC4CC(C2)CC(CNC(=O)N2CCN(C)CC2)(C4)C3)CC1` gave PV pol inh 103, Mtb MenB inh -44, Mtb MbtI inh 0 and PV pol inh intensity 103.
For COc1ccc(-c2nn(-c3ccccc3)cc2C#N)cc1 the results were PV pol inh 98, Mtb MenB inh -12, Mtb MbtI inh -19 and PV pol inh intensity 104.
`O=S(=O)(Nc1ccccc1-c1ccccc1)c1cccs1` gave PV pol inh 104, Mtb MenB inh 52*, Mtb MbtI inh 5 and PV pol inh intensity 104.

High-throughput results (PubChem BioAssay)
